TRPML1 ag = activates the human TRPML1 channel; Q9GZU1; activation, % (no concentration beside the values); TRPML1-expressing cells, Ca2+ dye fluorescence, FDSS; host cell line not named in the record; reference of the full effect not given here; 0.12% of 410,000 active; in the data active = activation above about 50%; inconclusive = about 30% to 50%; inactive = below about 30%; note: 0% is about no effect; the text of the record puts the active cut at 80%
Target sequence (Q9GZU1 whole entry, looked up): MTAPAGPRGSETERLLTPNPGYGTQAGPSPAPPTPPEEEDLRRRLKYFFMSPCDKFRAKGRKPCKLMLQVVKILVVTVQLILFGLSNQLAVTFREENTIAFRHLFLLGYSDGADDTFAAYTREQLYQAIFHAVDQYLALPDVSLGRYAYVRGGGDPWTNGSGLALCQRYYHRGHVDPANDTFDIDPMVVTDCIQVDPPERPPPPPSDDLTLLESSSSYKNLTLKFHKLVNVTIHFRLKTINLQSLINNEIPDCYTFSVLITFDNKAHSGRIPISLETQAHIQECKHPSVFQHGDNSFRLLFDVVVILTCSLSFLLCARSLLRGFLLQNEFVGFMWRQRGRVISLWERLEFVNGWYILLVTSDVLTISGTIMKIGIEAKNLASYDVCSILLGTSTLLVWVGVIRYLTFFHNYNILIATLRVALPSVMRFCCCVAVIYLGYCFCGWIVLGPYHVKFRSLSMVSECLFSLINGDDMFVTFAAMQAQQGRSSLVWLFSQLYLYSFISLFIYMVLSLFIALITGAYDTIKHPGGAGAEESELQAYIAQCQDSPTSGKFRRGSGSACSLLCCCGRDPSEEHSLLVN
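Cells: TRPML1-DL, 1X Tet inducer, ~16 h at 37 degrees C/5% CO2. Dye: ABD Ca8 no-wash + quencher, 45-90 min RT. Read: 10 s baseline, compound add, 110 s agonist phase; 54-4 EC80 (4uM final), 110 s antagonist phase.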
Six1-Eya2 inh = blocks human Six1 binding to Eya2 | Q15475+O00167 | AlphaScreen GST-Six1/His-Eya2 binding, biochemical; hits give low values; control for the full effect not named in the record | 0.56% of 360,000 active | activity change, % (test concentration not listed); in the data active = activity change below about -65%; inconclusive = about -30% to -65%; inactive = above about -30%; note: % is set by controls: 0 for no effect and ±100 for the full control effect; compound concentration not given in the record
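Six1/Eya2 binding was read as AlphaScreen signal after compounds were pinned into GST-Six1 plus His-tagged Eya2 (5X stock 250/500 nM) in pH 8.0 Tris/NaCl/TCEP buffer, beads added, then incubated 1 h, 37 C, dark.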
CtBP-E1A blk = blocks the CtBP interaction with E1A; 0.49% of 340,000 active; AID 651724; activity change, % (no concentration beside the values); AlphaScreen GST-E1A/His-CtBP binding, 1536-well; hits give low values; control for the full effect not named in the record; in the data active means activity change below about -65%; inconclusive means about -30% to -65%; inactive means above about -30%; note: % is set by controls: 0 for no effect and ±100 for the full control effect; compound concentration not given in the record
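Protein mix (5X: 125 nM each GST-E1A, His-CtBP) was incubated with pinned compound 2 h at 37 deg C in dark, in 50 mM Tris pH 8.0 buffer with 300 mM NaCl. Glutathione donor and nickel acceptor beads followed; AlphaScreen signal read after 1 h.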
D2 ag = human D2 receptor agonism in beta-arrestin assay | P14416 | DiscoveRx PathHunter D2 beta-arrestin, luminescence, 90 min; 100% = 57 uM dopamine signal | activation, % (no concentration beside the values) | 0.084% of 360,000 active; in the data active = activation above about 40%; inconclusive = about 15% to 40%; inactive = below about 15%; note: compound concentration not given in the record; the text of the record calls up to 30% inactive
Target sequence (P14416 whole entry, looked up): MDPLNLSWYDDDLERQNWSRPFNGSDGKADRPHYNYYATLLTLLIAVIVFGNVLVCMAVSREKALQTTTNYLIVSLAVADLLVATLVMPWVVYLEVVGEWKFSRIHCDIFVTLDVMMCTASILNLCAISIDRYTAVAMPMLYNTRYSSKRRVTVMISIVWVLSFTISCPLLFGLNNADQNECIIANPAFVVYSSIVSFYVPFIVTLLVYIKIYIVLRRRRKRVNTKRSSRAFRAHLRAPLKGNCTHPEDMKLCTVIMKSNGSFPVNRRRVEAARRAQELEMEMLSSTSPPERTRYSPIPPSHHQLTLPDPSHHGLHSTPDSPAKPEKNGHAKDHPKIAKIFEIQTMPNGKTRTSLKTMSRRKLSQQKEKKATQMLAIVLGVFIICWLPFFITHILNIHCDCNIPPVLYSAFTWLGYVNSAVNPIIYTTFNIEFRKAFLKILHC
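DiscoveRx PathHunter D2 beta-arrestin cells (2,100/well) attached overnight, then compound-stimulated 90 min at 37 C in HBSS/10 mM HEPES/0.1% Tween-20 buffer; beta-galactosidase complementation read by luminescence after 1 h at ambient temperature. Dopamine 57 uM final (EC100) as control.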
TRPML1 inh = blocks the human TRPML1 channel; TRPML1-inducible cells, Ca2+ dye fluorescence, FDSS; hits give low values; inhibition of EC80 agonist-evoked calcium signal; activity change, negative = inhibition, % (test concentration not listed); 0.02% of 390,000 active; in the data active means activity change below about -50%; inconclusive means about -30% to -50%; inactive means above about -30%;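 note: stimulus is agonist 54-4 at its EC80 concentration; % is set by controls: 0 for no effect and ±100 for the full control effect; compound concentration not given in the record; the text of the record puts the active cut at -80%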
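Calcium fluorescence in TRPML1-DL cells induced overnight with Tet: a 110 s read after compound pin addition, then a 110 s antagonist read after challenge with 54-4 at 4 uM final (EC80).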
PINK1 expr mod = PINK1 expression modulation; PINK1 immunofluorescence, high-content cytometry, 24 h; Potency, µM (highest dose often 76.6 µM), for the others: at the highest dose activation (PINK1 increase), hits mostly activators; 0.2% of 410,000 active; active = well fitted activation curve with a large enough effect; inconclusive = small, poorly fitted or top-dose-only effect; inactive = flat fitted curve, though single readings scatter; cell line not stated here;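 note: potency is the fitted concentration of half-maximal effect; % of control where 0% means no effect; nearly all actives have a fitted effect of over 65% in size; a mitochondrial uncoupler was the plate control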
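Fluorescence from anti-PINK1 antibody, together with nuclear and cell stains, was scanned on a laser-scanning cytometer. Before staining, stable-line cells were incubated 24 hours with compounds at 5 concentrations; primary antibody 12 h at 10 degrees C.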
Active calls of the source: *; ? = inconclusive; / = no result given; & = joins results of further samples; [ ] = dose if it differs, or a comment. Outcome played no part in choosing rows, and some 1% of all compounds hit somewhere here.

SMILES | TRPML1 ag | Six1-Eya2 inh | CtBP-E1A blk | D2 ag | TRPML1 inh | PINK1 expr mod
COc1cc(C2Nc3ccccc3NC3=C2C(=O)CC(C)(C)C3)cc(OC)c1OC (centres undefined) | 0.0 | 14 | 8 | 12 | -18 | -0.5%
O=C(COC(=O)C1=COCCO1)Nc1ncc(C(F)(F)F)cc1Cl | -0.7 | 9 | -1 | 0.5 | -2 | -1.2%
NC(=O)c1c(NC(=S)Nc2ccc(F)cc2)sc2c1CCCC2 | -0.6 | -1 | -2 | -3.0 | 34 | -0.3%
Cc1ccccc1NC(=O)CN1C(=O)NC(C)(CCc2ccccc2)C1=O (centres undefined) | -0.4 | 7 | -3 | -1.9 | -4 | 0.9%
COCCNC(=O)c1ccc(N2CC3CC(C2)c2cccc(=O)n2C3)c(NC(=O)c2ccccc2Cl)c1 (centres undefined) | -0.3 | 3 | -4 | -3.4 | 13 | 1.9%
CCCCOc1ccc(C(=O)NCCS(=O)(=O)N2CCN(c3ccccc3OC)CC2)cc1 | 2.1 | / | / | / | -6 | -1.3%
CSC1=C(C#N)C(c2ccc(C(C)C)cc2)CC(=O)N1 (centres undefined) | -0.8 | 2 | 6 | 13 | -4 | 5.8%
Cc1nc(C)c(C(=O)N(c2ccc(F)cc2)C(C(=O)NCC2CCCO2)c2ccccc2)s1 (centres undefined) | -1.0 | 3 | 7 | -2.6 | 8 | 0.1%
O=C(CN1C(=O)C2C3c4ccccc4C(c4ccccc43)C2C1=O)Nc1cccc(C(=O)O)c1 (centres undefined) | -0.1 | 2 | 1 | -1.8 | 7 | 2.0%
Nc1cc(N)cc(-c2nc3ccccc3o2)c1 | -0.8 | -10 | -4 | -3.2 | -11 | 2.6%
CC(=O)n1cc(/C=N/NC(N)=S)c2ccccc21 | -0.7 | -13 | -22 | 3.4 | 2 | 0.5%
O=C(CCN1CCN(c2ccccc2)CC1)NNC(=O)c1cccc2ccccc12 | -0.2 | -1 | 0 | ? | 4 | -0.1%
Cc1c(Cl)c([N+](=O)[O-])nn1CC(=O)NCCCN1CCOCC1 | 0.7 | 5 | -1 | -6.7 | 6 | 0.4%
CCCNC(=O)COc1ccc2c(=O)c(Oc3ccccc3F)coc2c1 | 0.1 | 5 | 7 | 4.1 | 0 | -3.9%
O=[N+]([O-])c1ccc(N2CCN(Cc3ccccc3)CC2)c(S(=O)(=O)N2CCOCC2)c1 | -0.4 | ? | -23 | -3.8 | 14 | 7.4%
N#Cc1cc2c(nc1SCc1ccccc1)CCC2 | 0.1 | 9 | -2 | -1.7 | -2 | 3.3%
CS(=O)(=O)Cc1ccc(C(=O)NC2CCCc3ccccc32)cc1 (centres undefined) | 0.0 | 10 | 5 | 2.4 | -17 | 1.2%
COc1ccccc1-c1nnc(SCC(=O)Nc2ccccc2F)o1 | 0.8 | / | / | / | 0 | 0.8%
NNC(=O)c1csc(-c2ncc(C(F)(F)F)cc2Cl)n1 | -0.2 | -2 | -3 | -6.5 | -2 | -0.9%
O=C(c1c(F)cccc1F)N(Cc1ccccc1)Cc1ccccc1 | 1.0 | 4 | 20 | 0.3 | -2 | -0.3%
CN(C(=O)C1CCC(CNS(=O)(=O)c2cccc3cccnc23)CC1)C1CCCCC1 (centres undefined) | 0.4 | 4 | -8 | -0.4 | -1 | -1.3%
CCc1ccccc1N(CC)C(=O)c1cn(C)c(=O)c2cc(OC)c(OC)cc12 | 2.2 | -1 | -1 | 6.7 | -7 | 0.1%
COCCN(C(=O)COC(=O)C(C)(C)Oc1ccc(Cl)cc1)c1c(N)n(Cc2ccccc2)c(=O)[nH]c1=O | -0.2 | -1 | 5 | -0.1 | -3 | 0.9%
CN(C)Cc1nc2ccccc2c(=O)n1Cc1nc(-c2cc3ccccc3o2)cs1 | 1.2 | -17 | -9 | -1.0 | 21 | 3.9%
O=C1COc2ccc3ccccc3c2CN1 | -0.2 | 0 | -1 | -0.2 | 14 | -1.9%
CCCCC(=O)N(C)c1c(CC)nc2c(OCc3cccc(Cl)c3)cccn12 | -0.3 | -4 | 0 | -3.6 | 17 | 5.2%
CN(Cc1ccccc1)C(=O)c1cc(-c2cccc(Cl)c2)on1 | -0.9 | / | / | / | 12 | -0.2%
COc1ccccc1CNC(=O)COC(=O)c1ccc(C)c(S(=O)(=O)N2CCCCC2)c1 | 1.5 | 0 | 1 | -2.4 | 63 | 0.7%
Cc1nnsc1S(=O)c1ccc(Cl)cc1 (centres undefined) | 1.0 | 12 | / | -2.7 | 1 | 1.5%
Cc1ccc(NC(=O)CN(C)C(=O)c2ccc(Cl)c(S(=O)(=O)NCc3ccco3)c2)cc1 | 1.1 | 0 | 0 | -2.6 | 8 | 3.2%
O=C(O)CC(NC(=O)C12CC3CC(CC(C3)C1)C2)c1cccc(Cl)c1 (centres undefined) | 0.2 | 1 | / | -2.0 | 3 | 0.3%
Cc1nc2ccc(S(=O)(=O)NC(C(=O)Nc3nc4ccc(Cl)cc4s3)C(C)C)cc2s1 (centres undefined) | -0.3 | -4 | 0 | -4.3 | 5 | 9.6%
Cc1ccc(CNC(=O)CN(C)S(=O)(=O)c2cccs2)cc1 | -0.7 | 8 | 8 | -4.3 | 1 | -0.9%
CCOc1ccc(CCNC(=O)CSc2cc(=O)n(C)c3cc(Cl)ccc23)cc1OCC | -0.6&1.7 | -19 | 4 | -1.3 | 10&12 | 1.1%&3.3%
CC(=O)N1CCN(c2ccc(NCc3ccc(C)cc3)cc2)CC1 | 1.0 | -18 | -9 | -1.4 | -6 | -4.1%
CSCCC(NC(=O)c1cccc(C)c1)C(=O)OCC(=O)Nc1c(C)nn(-c2ccccc2)c1C (centres undefined) | 4.7 | -2 | -10 | 0.2 | -6 | -2.4%
Cc1cc(CN(C)C(=O)CC2C(=O)NCCN2Cc2c(F)cccc2Cl)n[nH]1 (centres undefined) | 0.4 | 2 | 3 | -3.0 | 4 | 0.4%
CCOC(=O)C(C)(C)Oc1ccc(Cl)cc1 | 0.2&-0.4 | 3 | 3 | -5.1 | -1 | -0.7%&0.1%
CCN(CC(=O)Nc1c(F)cccc1F)C(=O)c1cc([N+](=O)[O-])ccc1N1CCCCC1 | 1.3 | -2 | 4 | -0.3 | 3 | -7.9%
O=C(CN1CCN(Cc2ccccc2F)C1=O)NCc1ccco1 | -0.5 | 0 | 2 | -4.1 | 3 | -0.2%
Cc1ccccc1CN1CCNC(=O)C1CC(=O)O (centres undefined) | -0.6 | -8 | 1 | -3.2 | -5 | 2.8%
O=C(CC1Sc2ccccc2NC1=O)Nc1cccnc1 (centres undefined) | -0.3 | 7 | 2 | -0.6 | -2 | -0.6%
COc1ccccc1N1CCN(C(=O)C2CCC(Cn3c(=S)[nH]c4ccccc4c3=O)CC2)CC1 (centres undefined) | 3.0 | -23 | -26 | 3.7 | -5 | /
CCOc1ccc(CN2CCN(C(=O)c3cccc(F)c3)CC2)cc1 | 0.2 | 4 | -6 | 0.3 | -3 | 0.3%[38.3 µM]
O=C(CN1CCCCCC1)Nc1ccccc1C(=O)Nc1ccccc1 | 0.3 | 9 | 16 | 1.3 | -7 | 2.4%
COc1cccc(NC(=O)C(=O)c2cn(CC(=O)N3CCOCC3)c3ccccc23)c1 | 0.6 | 3 | / | 1.2 | 6 | 2.4%
CCN1CCN(C(CNS(=O)(=O)c2cccs2)c2cccnc2)CC1 (centres undefined) | 0.3 | 12 | / | 1.1 | 6 | 0.2%
CC(CCl)OC(C)CCl (centres undefined) | -0.1 | 1 | 5 | 0.6 | -2 | 2.2%
Cc1ccc(OCCOCCNC(C)(C)C)c([N+](=O)[O-])c1 | -0.1 | 0 | 9 | -4.5 | -15 | 3.1%
COc1ccccc1NC(=O)Cn1c(=O)n(CCCCCC(=O)NCc2ccccc2)c(=O)c2sccc21 | 1.8 | / | / | / | -11 | 16%
CCc1ccc(-c2cc(C)no2)cc1S(=O)(=O)NCc1ccco1 | -0.7&1.5 | -7 | -12 | 1.7 | -9&-7 | 2.7%&4.2%
O=C(OCC(=O)N1CCCC1=O)C1CCN(S(=O)(=O)c2ccc(Cl)c(C(F)(F)F)c2)CC1 | -1.6 | -2 | / | -1.1 | 9 | 0.7%
CCOC(=O)CC1=C(C(=O)OCC)C(c2ccc(OC)c(OC)c2)C(C#N)=C(N)O1 (centres undefined) | 0.8 | -7 | -2 | -1.5 | -4 | 0.2%
C=CCn1c(C)cc(C2=NNC(=NCc3ccccc3)SC2)c1C | -0.6 | -8 | -5 | -3.9 | -8 | ?
CCc1cccc(C)c1NC(=O)CSc1n[nH]c(N)n1 | 1.9 | 3 | -2 | 4.4 | 8 | 0.8%
COCCNC(=O)C1CCCN(C(=O)c2cc(-c3ccccc3)cs2)CC1 (centres undefined) | -0.5 | 7 | 6 | -3.4 | / | -0.5%
N#Cc1cc2c(nc1S(=O)(=O)Cc1ccccc1)CCCC2 | -0.9 | 4 | 3 | -0.4 | -11 | 0.2%
COc1ccccc1NC(=S)N1CCN(c2ccccc2F)CC1 | / | -2 | / | -1.0 | / | 0.1%
O=C(CCCN1C(=O)C(c2ccccc2)Oc2cccnc21)Nc1ccccc1C(F)(F)F (centres undefined) | 3.4 | / | / | / | -10 | 8.8%
CNC(=O)C1(C)Cc2c(-c3ccc(NC(C)=O)cc3)ccnc2O1 (centres undefined) | -0.6 | 2 | 4 | -2.3 | / | 0.6%
N=c1oc2ccc(Br)cc2cc1C(=O)NCc1ccccc1 | -0.2 | -7 | 24 | -4.9 | 4 | ?
CC(=O)N1CCN(CC(=O)Nc2cc(F)ccc2C)CC1 | 0.7 | -2 | -12 | -4.6 | -8 | 0.6%
CCOC(=O)N1CCc2c(sc3nc4n(c(=O)c23)N=C(C)CS4)C1 | -0.9 | -3 | -6 | -1.5 | 22 | -1.0%

Compound profiles (already shown). Order of screens: TRPML1 ag	Six1-Eya2 inh	CtBP-E1A blk	D2 ag	TRPML1 inh	PINK1 expr mod
COc1ccccc1NC(=S)N1CCN(c2ccccc2F)CC1 is entered as /	-2	/	-1.0	/	0.1%
COc1cccc(NC(=O)C(=O)c2cn(CC(=O)N3CCOCC3)c3ccccc23)c1 is entered as 0.6	3	/	1.2	6	2.4%
CCc1cccc(C)c1NC(=O)CSc1n[nH]c(N)n1 is entered as 1.9	3	-2	4.4	8	0.8%
CC(=O)N1CCN(CC(=O)Nc2cc(F)ccc2C)CC1 is entered as 0.7	-2	-12	-4.6	-8	0.6%
CCc1ccc(-c2cc(C)no2)cc1S(=O)(=O)NCc1ccco1 is entered as -0.7&1.5	-7	-12	1.7	-9&-7	2.7%&4.2%

Screening data from PubChem BioAssay.
